TAR Tat displ = TAR RNA-Tat peptide displacers, HIV-1, primary screen, biochemical, FRET, FAM/TAMRA-labeled Tat | HIV-1 TAR RNA, Tat peptide displacement FRET; hits give high values | z-score (concentration not given with the values) | hit rate 0.6% among 100,000 | AID 1259389, 2018;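 note: score is relative to mean and SD of negative controls; some compounds called inactive have numbers as strong as hits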
CDC25B-CDK2 inh = primary biochemical HTRF screen for blockers of M-phase inducer phosphatase 2 binding to CDK2/cyclin A. HTRF CDC25B-CDK2/CyclinA binding, anti-His/anti-Flag; hits give high values. z-score (concentration not given with the values). hit rate 0.72% among 94,000. AID 1259370, 2018;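 note: score is relative to mean and SD of negative controls; strong numbers were not always called active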
* hit, by the source's call; / = no result given.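 Rule for the calls: active = z-score from 3 up in half or more of its runs; inactive = the rest.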

no.	SMILES	TAR Tat displ	CDC25B-CDK2 inh
1	Cc1ccc(C)c(N2CCN(Cc3nnc(-c4ccc5c(c4)OCO5)o3)CC2)c1	1.22	-0.17
2	Cn1c2c(c(=O)[nH]c1=O)C(NC(=O)c1ccco1)(C(F)(F)F)C(=O)N2 (configuration not stated)	/	-0.74
3	O=C(COc1ccccc1)N1CCN(c2nc3cc(Br)ccc3n3cccc23)CC1	-0.82	-1.63
4	c1ccc(-c2nc3c4cnn(-c5ccccc5)c4ncn3n2)cc1	/	-2
5	COc1ccc(-c2c(C)nn3c(N)c(-c4ccc(Cl)cc4)cnc23)cc1	1.5	-4.07
6	O=C(Nc1ccc(Br)cc1)c1cc2ccccc2c(=O)s1	-0.46	0.24
7	O=C(Cn1cc2c(n1)CCCCC2)Nc1ccc2c(c1)OCCO2	-1.4	-0.63
8	CC1CN(C(=O)CCC(=O)N2CCN(c3ccccn3)CC2)c2ccccc2O1 (configuration not stated)	0.14	-2.59
9	Clc1ccc(-c2nn3c(-c4ccncc4)nnc3c3ccccc23)cc1	-0.13	-1.17
10	COCCN1C(=O)c2ccccc2C(C(=O)NCCN(C)C)C1c1cn(C)c2ccccc12 (configuration not stated)	/	-1.15
11	Cc1c(C(=O)N2CCC(C)CC2)c(S(=O)(=O)N(Cc2cccs2)C2CCCCC2)c(C)n1C	0.26	/
12	Cc1cc2c(cc1S(=O)(=O)Nc1ccc(F)c(F)c1)OCC(=O)N2	1.1	/
13	COc1ccc(Cc2nc3c4c(C)c(C)n(CC(C)C)c4ncn3n2)cc1	0.88	0.24
14	CCn1c(SCC(=O)N2CCCc3ccccc32)nc2c(c1=O)SCC2	1.87	-0.13
15	CCCOC(=O)c1ccc(NS(=O)(=O)c2c(C)nc3sccn3c2=O)cc1	0.46	/
16	N#C/C(N)=C(\C#N)NCc1c(F)cccc1Cl	/	-1.54
17	COc1cccc(Nc2nnc3n2CCCCC3)c1	0.85	-1.24
18	COc1ccccc1-c1coc2c(CN(C)C3CCCCC3)c(O)ccc2c1=O	-3.79	-0.42
19	CC1CC(C)CN(C(=O)CCC(=O)O)C1 (configuration not stated)	-0.07	-1.09
20	Cc1sc2ncnc(SC(C)C(=O)O)c2c1C (configuration not stated)	/	-2.2
21	Cn1c(=O)c2c(-c3ccc(Cl)cc3)n3c(c2n(C)c1=O)COCC3	1.72	-0.02
22	Cc1nc(N2CCN(C)CC2)ncc1C(=O)NC1CCCC1	1.33	/
23	Cc1cccc(-n2c3c(c(SCc4ccccc4F)nc2=O)CCC3)c1	2	-0.76
24	Cc1nn(-c2nncc(-c3ccccc3)n2)c2c1C(c1cccc(Cl)c1)CC(=O)N2 (configuration not stated)	0.39	3.65
25	Cc1ccn2c(=O)c(NC(=O)c3ccccc3Br)c(C)nc2c1	0.84	/
26	COc1ccc(OC)c(S(=O)(=O)N(CCS(=O)(=O)N2CCNCC2)C2CCCCC2)c1	0.19	/
27	CCSc1nc(-c2ccc(Cl)cc2)[nH]c(=O)n1	/	-1.38
28	CC(C)Cn1c(=O)c2sccc2n2c(CCCC(=O)NC3CCCCC3C)nnc12 (configuration not stated)	-0.07	/
29	O=C(O)CN1C(=O)C2CCCN2c2ccc(C(=O)N3CCOCC3)cc21 (configuration not stated)	-0.06	/
30	Cc1cc(C)cc(NS(=O)(=O)c2cc3c(cc2C)n(C)c(=O)c(=O)n3C)c1	1.34	/
31	c1ccc(N2CCN(Cc3cccn3-c3nnc(N4CCOCC4)s3)CC2)nc1	0.32	/
32	COc1ccc(-c2ccc(NS(=O)(=O)c3cccc(Cl)c3)cc2)nn1	1.83	/
33	COc1ccc(C2CC(=O)C3=C(C2)Nc2nc4ccccc4n2C3c2cccs2)cc1 (configuration not stated)	1.75	-1.91
34	COc1ccc(Cc2nn3c(C(C)C)nnc3s2)cc1	-0.13	-1.18
35	Nc1cc(=O)nc(SCc2ccccc2)n1Cc1ccco1	0.7	-0.14
36	C=CCn1c(Oc2ccccc2Cl)nc2c1c(=O)n(C)c(=O)n2C	0.72	1.22
37	CCOc1nc(-c2ccc(C)cc2)ccc1-c1noc(-c2ccco2)n1	-6.03	-2.12
38	CC(C)(C)C(=O)CC(N)=NC(=O)c1ccc(Cl)cc1	/	-2.08
39	CN(C(=O)c1c2c(nc3ccccc13)C(=O)N(C1CCCCC1)C2)c1ccc(F)cc1	-0.41	/
40	CN1C(=O)C(C)(C)c2cc(S(=O)(=O)NC3CCCC3)ccc21	1.75	/
41	COc1ccc2c(c1)NC(c1ccc(Cl)cc1)=NC(c1cccs1)=N2	0.32	0.24
42	Cc1ccc2ncnc(NC(CO)C(=O)O)c2c1 (configuration not stated)	-0.18	-1.73
43	Cc1ccc(C)c(S(=O)(=O)c2n[nH]n3c2nc(=O)c2sccc23)c1	2.71	-1.23
44	CCS(=O)(=O)N1CCCc2ccc(NS(=O)(=O)c3c(C)c(C)c(C)c(C)c3C)cc21	-1.59	/
45	CCc1nnc2c(NCc3cc(OC)ccc3OC)nc3ccccc3n12	0.91	/

Grouped by structure, the entries above containing an aryl methoxy group
no.	SMILES	TAR Tat displ	CDC25B-CDK2 inh
5	COc1ccc(-c2c(C)nn3c(N)c(-c4ccc(Cl)cc4)cnc23)cc1	1.5	-4.07
13	COc1ccc(Cc2nc3c4c(C)c(C)n(CC(C)C)c4ncn3n2)cc1	0.88	0.24
17	COc1cccc(Nc2nnc3n2CCCCC3)c1	0.85	-1.24
18	COc1ccccc1-c1coc2c(CN(C)C3CCCCC3)c(O)ccc2c1=O	-3.79	-0.42
26	COc1ccc(OC)c(S(=O)(=O)N(CCS(=O)(=O)N2CCNCC2)C2CCCCC2)c1	0.19	/
32	COc1ccc(-c2ccc(NS(=O)(=O)c3cccc(Cl)c3)cc2)nn1	1.83	/
33	COc1ccc(C2CC(=O)C3=C(C2)Nc2nc4ccccc4n2C3c2cccs2)cc1 (configuration not stated)	1.75	-1.91
34	COc1ccc(Cc2nn3c(C(C)C)nnc3s2)cc1	-0.13	-1.18
41	COc1ccc2c(c1)NC(c1ccc(Cl)cc1)=NC(c1cccs1)=N2	0.32	0.24
45	CCc1nnc2c(NCc3cc(OC)ccc3OC)nc3ccccc3n12	0.91	/

Other entries follow:
no.	SMILES	TAR Tat displ	CDC25B-CDK2 inh
46	NC(=O)C1CCN(C(=O)c2ccc3c(=O)n4c(nc3c2)CCCC4)CC1	2.33	/
47	CCN(CC)S(=O)(=O)c1cc(-c2cnc(C)o2)ccc1C	1.15	/
48	CCCCSc1nc2c(c(=O)[nH]1)C(c1ccc(C)cc1)C(C(=O)OCC)=C(C)N2 (configuration not stated)	-0.81	-0.03
49	CNC(=S)Sc1ccc(F)cc1F	/	-0.92
50	COc1ccccc1CCn1cc(C#N)c(=O)[nH]c1=O	/	-2.35
51	COc1ccc(C2NC(=O)C(=O)/C2=C(\O)c2ccc(C)cc2)cc1 (configuration not stated)	/	-0.06
52	C=CCOc1ccc(C(Nc2ccccn2)c2ccc3ccc(C)nc3c2O)cc1 (configuration not stated)	0.52	-0.65
53	Cc1ccccc1OCCSc1nnc(-c2cccs2)o1	1.8	0.11
54	O=C(NCc1ccco1)c1sc2ncccc2c1-n1cccc1	0.66	/
55	Cc1cc(C)n(-c2nc3ccccc3nc2N2CCNCC2)n1	0.87	0.72
56	Cn1c(=O)c2c(nc(NCc3ccccc3)n2Cc2ccc(F)cc2)n(C)c1=O	1.35	2.21
57	COc1ccccc1C1C(C#N)=C(N)OC2=C1C(=O)CCC2 (configuration not stated)	/	-0.76
58	c1coc(CN2CCn3c(nc4ccccc43)C2)c1	-1.34	0.65
59	CCCNC(=O)CCCn1c2ccccc2c2cn[nH]c(=O)c21	-2.03	-0.19
60	COc1ccc(COC(=O)C2=C(C)NC3=C(C(=O)CCC3)C2c2coc3ccccc3c2=O)cc1 (configuration not stated)	0.47	0.07
61	O=C(CCCN1C(=O)c2cccnc2Oc2ccc(Cl)cc21)NC1CCCCC1	0.94	/
62	CC(CC(=O)O/N=C(\N)c1ccc(C(F)(F)F)cc1)S(=O)(=O)c1ccc(Cl)cc1 (configuration not stated)	/	2.62
63	CCOc1ccc(CCNS(=O)(=O)c2c(C)nc3scc(C)n3c2=O)cc1OCC	1.45	-2.68
64	O=C(CSc1nnc(-c2cccnc2)o1)NCC1CCCO1 (configuration not stated)	0.82	-1.21
65	CCNc1oc(/C=C/c2ccc(F)cc2)nc1C#N	1.81	-1.74
66	Nc1c2c(nc3ccccc13)N(Cc1ccccc1)CC2	-3.47	-0.38
67	O=C(O)C1C2CCC(C2)C1C(=O)Nc1nc(-c2ccc(Br)cc2)cs1 (configuration not stated)	-1.39	-2.33
68	CCC12CN3CC(CC)(CN(C1)C3c1cc(Br)ccc1O)C2=O (configuration not stated)	-0.38	-0.1
69	CCN1CCN(CCCNC(=O)C2=C(C)C(=O)OC23CCN(C(C)=O)CC3)CC1	1.17	/
70	CCCCc1nn2c(=O)cc(COC(=O)COc3ccccc3Cl)nc2s1	-0.37	/
71	CCc1ccccc1-n1c(SCc2cc(=O)n3c(C)cccc3n2)nc2[nH]ncc2c1=O	/	-1.99
72	Nc1cc(-c2csc(-c3cccnc3)n2)nn1-c1ccc(Cl)cc1	/	0.27
73	COC(=O)c1c(-c2cccs2)csc1NC(=O)c1cncc(Br)c1	-0.54	-0.32
74	Oc1ccccc1C1CCCCC1c1ccccc1 (configuration not stated)	0.46	-2.2
75	O=C(Nc1ccc(S(=O)(=O)Nc2ncccn2)cc1)c1nn(-c2cccc(Cl)c2)ccc1=O	0.4	-1.46
76	O=C(CCSc1nc(-c2ccco2)cc(C(F)(F)F)n1)NCc1ccco1	2.27	-0.97
77	O=C(c1cnn(-c2ccccc2)c1-n1cccc1)N1CCC(C(=O)N2CCOCC2)CC1	1.65	-1.45
78	CCOC(=O)Cn1nc(-c2ccc(C)c(S(=O)(=O)N(CC)CC)c2)ccc1=O	0.45	-0.64
79	O=S(=O)(CC(O)COc1ccc(Br)cc1)c1ccc(Cl)cc1 (configuration not stated)	/	0.72
80	CSC(=NCc1cccs1)NC#N	/	-1.67
81	O=C1C(=O)N(CCCn2ccnc2)C(c2ccc(F)cc2)/C1=C(\O)c1ccc(F)cc1 (configuration not stated)	0.33	-2.04
82	O=S(=O)(NC1CCCCC1)c1ccc(Cl)cc1I	/	0.12
83	COc1ccc(Cl)cc1-n1nnc(-c2nc(-c3cccs3)no2)c1N	1.22	/
84	Cc1ccc(-c2n[nH]c3c2C(c2cccnc2)N(c2ccc(C(=O)O)cc2)C3=O)cc1 (configuration not stated)	-0.25	/
85	Nc1nc(-c2ccncc2)ncc1S(=O)(=O)Cc1ccco1	/	-0.69
86	Cc1nc2c(C)cccn2c(=O)c1Cc1nnc(SCC(=O)Nc2ccc(F)cc2)n1C	-1.81	-0.72
87	O=C(CCSCCc1ccccn1)Nc1ccc(Br)cc1F	1.86	/
88	COc1ccc(C2c3c(oc4cc(C)cc(C)c4c3=O)C(=O)N2CC2CCCO2)cc1OC (configuration not stated)	-0.59	-2.45
89	COc1cc(NC(=O)CSc2nncn3c2cc2sccc23)cc(OC)c1	2.2	/
90	Cc1cc(C)cc(Nc2c(-c3ccc4c(c3)CCCC4)c(=O)c2=O)c1	-1.47	/
91	COc1ccccc1OCc1nc(-c2ccc(Cl)cc2)no1	0.47	-1.24
92	CN(C)CCN1C(=O)C(O)=C(C(=O)c2cccs2)C1c1ccncc1 (configuration not stated)	1.15	-0.26
93	CC(C)NC(=O)C1CC(c2ccc(F)cc2)=NO1 (configuration not stated)	1.29	1.2
94	Cn1c2ccccc2n2nc(CCC(=O)O)c(=O)nc12	1.24	-1.2
95	O=C(CSc1nnnn1-c1ccccc1)CSc1nnnn1-c1ccccc1	/	-2.26
96	COc1cccc(-c2n[nH]c3c2C(c2cccs2)NC3=O)c1 (configuration not stated)	0.03	-0.58
97	CC1(C)S[C@H](CNC(=O)Cc2ccccc2)N[C@H]1C(=O)O	/	-1.75
98	O=c1[nH]n2c(=O)c3ccccc3nc2c2ccccc12	/	0.51
99	Cc1ccc(-n2ncc3c(NCCCn4ccnc4)ncnc32)cc1	2.22	/
100	CN(C)c1ccc(C(=O)N/N=C/c2ccc(N(C)C)cc2Cl)cc1	/	-1.65
101	CCn1c(SCc2nc(-c3ccc(Cl)cc3)no2)nnc1-c1ccncc1	2.59	-0.57
102	CC1CCC(NC(=O)CN(C)S(=O)(=O)c2cc3c(cc2Cl)NC(=O)CO3)CC1 (configuration not stated)	1.08	/
103	COc1ccc(S(=O)(=O)N2CCOCC2)cc1	/	-0.56
104	CC(=O)NCCc1c(F)cccc1Cl	/	-1.92
105	O=C(Nc1ccccc1)c1csnn1	-0.11	-1.26

Other records
no.	SMILES	TAR Tat displ	CDC25B-CDK2 inh
106	COc1cc(C2C(C(=O)OC3CCCC3)=C(C)NC3=C2C(=O)CCC3)cc(Br)c1O (configuration not stated)	1.28	-1.79
107	N/C(=N\C(=O)N1CCOCC1)c1ccccc1OC(F)(F)F	/	0.34
108	CCN(CC)CCNC(=O)C1Cc2cc(S(=O)(=O)N3CCOCC3)ccc2N1C(C)=O (configuration not stated)	0.21	/
109	CN(C)c1ccc(C(CNS(=O)(=O)c2ccccc2)N2CCN(c3ccccc3)CC2)cc1 (configuration not stated)	2.34	/
110	Cc1nn(CC(=O)N2CCCC2)c(C)c1S(=O)(=O)N1CCCC(C(=O)N2CCOCC2)C1 (configuration not stated)	1.71	/
111	O=S(=O)(c1ccccc1)c1ccc(-n2ccnc2)cc1	/	-0.72

Screening data from PubChem BioAssay.
